HNF4A DNA FP: change in binding of human HNF4A to DNA, primary screen, biochemical, fluorescence polarization, FITC-DNA; AID 1224865, 2016; 1 h; actives 0.3% (n = 360,000); activity change, % at 10 µM; in the data active means activity change above about 30%, passing the limit was not always enough;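 further: controls were the assay level and a saturating level of protein; the project sought stronger binding though the title names inhibitors; some compounds called inactive have numbers as strong as hits; positive values seem to mean higher polarization but the record does not say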
Target sequence (P41235 whole entry, looked up): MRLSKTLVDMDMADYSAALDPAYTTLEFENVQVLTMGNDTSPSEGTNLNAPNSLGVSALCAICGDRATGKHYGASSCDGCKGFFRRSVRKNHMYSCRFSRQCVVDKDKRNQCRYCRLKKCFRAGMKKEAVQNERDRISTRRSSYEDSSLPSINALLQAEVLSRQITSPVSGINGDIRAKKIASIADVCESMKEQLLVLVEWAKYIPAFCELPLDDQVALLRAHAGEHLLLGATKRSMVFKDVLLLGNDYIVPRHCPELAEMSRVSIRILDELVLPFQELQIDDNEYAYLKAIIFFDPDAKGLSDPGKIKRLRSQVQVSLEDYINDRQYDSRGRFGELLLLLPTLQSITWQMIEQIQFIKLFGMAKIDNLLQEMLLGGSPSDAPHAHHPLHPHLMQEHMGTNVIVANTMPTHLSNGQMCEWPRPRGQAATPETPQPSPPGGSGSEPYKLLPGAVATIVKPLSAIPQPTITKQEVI
E coli growth: E. coli growth inhibition, primary screen, OD600; Escherichia coli growth, 23 h; stronger effect = lower value; OD600 absorbance (test concentration not listed); actives 0.21% (n = 330,000);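 active means OD600 absorbance below the run mean of sample wells minus 3.6 SD, in any replicate, cut at about 0.56 in these data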;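 further: stock transfer was 300 nL into about 60 µL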
UCH37 inh: inhibitors of human UCH37 deubiquitinase, primary screen, biochemical, Ub-AMC cleavage, fluorescence; Ubiquitin carboxyl-terminal hydrolase isozyme L5 (Homo sapiens), Q9Y5K5; purified proteasome/UCH37; inhibition, % (concentration not given with the values); actives 0.33% (n = 330,000); AID 588478, 2011;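 active means mean of two replicates above 20%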;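 further: 0% = compound-free wells with enzyme and 100% = wells lacking proteasome; stock transfer was 100 nL into about 20 µL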
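assay system = human UCH37 enzyme supplied as purified proteasome complex | amount = proteasome at 0.15 nM in the dispensed enzyme solution | schedule = 30 min compound-proteasome preincubation then 25 min substrate reaction, room temperature | measured by = fluorescence, ex 355 nm, em 460 nm | benchmarks = no-proteasome wells (full inhibition) and compound-free wells (no inhibition)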
Beta2AR agonist: beta2AR agonists driving receptor internalization, primary screen, cell-based, FAP fluorogen, flow cytometry; Beta-2 adrenergic receptor (Homo sapiens), P07550; Am2.2-beta2AR cells; reference of the scale not given here; response, % (no concentration beside the values); actives 0.43% (n = 340,000); AID 504454, 2011;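 active means response above a set limit, near 3 SD of response in nonfluorescent compounds, cut at about 42% in these data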;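 further: stock transfer was 100 nL into about 11 µL; a reference agonist was the positive control; negative values mostly stem from fluorescent compounds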
Target sequence (P07550 whole entry, looked up): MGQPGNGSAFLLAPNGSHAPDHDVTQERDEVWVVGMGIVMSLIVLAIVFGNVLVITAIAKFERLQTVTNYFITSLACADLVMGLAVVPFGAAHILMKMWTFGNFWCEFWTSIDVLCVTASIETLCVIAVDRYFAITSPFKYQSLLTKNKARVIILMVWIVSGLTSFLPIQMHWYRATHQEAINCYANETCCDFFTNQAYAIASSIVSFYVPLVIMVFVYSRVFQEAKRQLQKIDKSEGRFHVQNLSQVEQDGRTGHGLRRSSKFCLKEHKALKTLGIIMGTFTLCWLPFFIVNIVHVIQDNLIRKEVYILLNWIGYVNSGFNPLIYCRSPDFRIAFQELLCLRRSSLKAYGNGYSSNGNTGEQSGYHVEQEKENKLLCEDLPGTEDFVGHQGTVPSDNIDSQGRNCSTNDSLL
FGF22 binding: binders of human FGF22 protein, primary screen, FGF22 synaptogenesis inhibitor project, biophysical, thermal shift, single point; recombinant FGF22 thermal shift, SYPRO orange fluorescence; percent of sucrose octasulfate shift, DMSO zero; calls only at 9.99 µM; actives 1.5% (n = 340,000); AID 651658, 2012;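 active means melting point raised past a set limit in the mean and every replicate; three in four hits are not shown here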
Target sequence (Q9HCT0 whole entry, looked up): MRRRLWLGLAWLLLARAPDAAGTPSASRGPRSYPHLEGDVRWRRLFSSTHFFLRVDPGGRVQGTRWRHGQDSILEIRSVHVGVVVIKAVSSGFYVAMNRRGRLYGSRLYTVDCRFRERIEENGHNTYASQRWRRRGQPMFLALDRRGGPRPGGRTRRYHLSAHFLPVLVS
ALR inh: inhibitors of human ALR sulfhydryl oxidase, primary screen, biochemical, H2O2 detection, HRP-luminol luminescence, single point. inhibition, % (concentration not given with the values). AID 485317, 2010. actives 3.8% (n = 290,000). purified ALR, DTT oxidation;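 active means mean and each replicate at 75% or more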;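 further: stock transfer was 7.5 nL into about 7.5 µL; 0% = neutral wells and 100% = wells with inactivated enzyme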
LANA-H2A inh: blockers of LANA interaction with H2A/H2B – biochemical, FP readout, HTS, primary screen; Protein LANA1 (Human herpesvirus 8 type P (isolate GK18)), Q9QR71; cell-free LANA-H2A/H2B peptide, fluorescence polarization; inhibition, % (no concentration beside the values); actives 0.6% (n = 320,000); AID 2629, 2010; in the data active means inhibition mostly above about 10%, no sharp cut-off; inactive means mostly below about 6.7%;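 further: stock transfer was 7.5 nL into about 10 µL; 0% = median of vehicle wells and 100% = median of positive control wells; one replicate is shown; the record names a cut of 25% in any replicate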
Starred values were filed as active, the others as inactive; i = inactive; . = not tested or not shown. An excerpt, so the mix of outcomes need not match the whole.

SMILES	HNF4A DNA FP	E coli growth	UCH37 inh	Beta2AR agonist	FGF22 binding	ALR inh	LANA-H2A inh
CCC1CN(C(=O)N2CCC(C(=O)NCc3ccc(F)cc3)CC2)c2ccccc2O1 (centres undefined)	2.1	0.72	3.2	-1	i	-3	-3.5
COc1ccccc1OCC(=O)Nc1ccccc1C(=O)Nc1cccc(C(=O)O)c1	-2.2	.	.	4	i	-1	5.8
CCC(=O)Nc1cccc(C(=O)c2ccc(C)c(C)c2)c1	2.1	0.66	-1.1	-6	.	5	.
CC(C)CCNC(=O)c1nnc(Cc2ccc(Cl)cc2)o1	1.8	0.72	7.3	-4	i	-1	-1.1
COc1ccc(OC)c(NC(=O)CSCc2cnn(-c3ccccc3)c2-n2cccc2)c1	-1.1	0.69	2.8	-3	.	-20	0.0
CCOC(=O)C1CCCN(C(=O)c2ccc(Cl)c(S(=O)(=O)N3CCCCCC3)c2)C1 (centres undefined)	1.9	0.68	2.4	5	i	1	2.0
CCN1CCN(C(=S)c2ccc(OCC(=O)N3CCOCC3)cc2)CC1	-0.6	0.65	1.1	11	.	-2	1.3
CCN1C(=O)c2cccc3cccc1c23	1.6	0.69	-8.9	15	i	-1	-4.5
N#C/C(=C\c1c(N(Cc2ccccc2)Cc2ccccc2)nc2ccccn2c1=O)C(N)=O	3.2	.	0.5	-4	.	2	-3.0
Cc1c(OCC(=O)N(C)C)ccc2c(-c3ccccc3)cc(=O)oc12	3.8	0.67	0.7	-8	i	-2	-1.9
OCC1(CCCc2ccccc2)CCN(Cc2cc(F)ccc2F)CC1	-6.8	0.69	0.9	-7	i	-5	-1.7
O=C(Nc1cc(S(=O)(=O)N2CCOCC2)ccc1N1CCOCC1)c1ccc(Cl)nc1	-0.3	0.7	4.8	-8	.	2	0.7
COc1ccc(/C=N/Nc2cc(N3CCCC3)nc(N3CCCC3)n2)cc1	0.9	.	.	35	i	-43	-0.4
CC(C)(C)NC(=O)Cn1nnnc1-c1nonc1N	-1.5	0.75	-0.2	-1	.	-2	-0.2
NC(=S)NNC(=O)Nc1ccc(Cl)c(Cl)c1	2.3	.	.	-8	.	94*	-5.8
COc1cc(OC)nc(NC(C)=O)n1	-1.0	0.74	-0.1	-1	.	-5	-6.5
COc1ccc(-c2nnc(SC(C(=O)c3c[nH]c4ccccc34)c3ccccc3)n2N)cc1OC (centres undefined)	1.9	0.69	2.6	-8	i	.	.
Cc1cccn2c(=O)c(/C=C(\C#N)S(=O)(=O)c3ccccc3)c(N3CCN(Cc4ccccc4)CC3)nc12	0.8	0.68	-0.4	3	i	-7	4.3
Cc1ccc2c(CC(=O)OCc3cc(=O)n4c(n3)sc3ccccc34)coc2c1	-13	0.82	-2.7	-12	.	-8	1.5
O=C(NCCC(=O)N1CCN(c2ccccc2O)CC1)c1ccc(Br)cc1	-3.1	0.61	-0.2	-3	i	.	2.2
NS(=O)(=O)c1ccc(NC(=O)/C=C/c2ccccc2Cl)cc1	1.9	.	.	12	i	2	4.9
C=CCn1c(SCc2nc3ccccc3c(=O)[nH]2)nc2scc(C3CC3)c2c1=O	20	0.64	-4.5	-1	i	.	2.5
CC(=O)c1ccc(NC(=O)c2ccn(C(=O)OCC(C)C)n2)cc1	-1.5	0.61	1.9	8	.	1	-4.7
COC(=O)C1CC2=C(CCCC2=O)NC1=O (centres undefined)	0.5	0.69	-1.9	-2	i	.	.
NCCCNc1nc(N)c([N+](=O)[O-])c(NC2CCCCC2)n1	-0.8	.	.	10	i	-2	-0.6
O=C(Nc1c(C(=O)N2CCOCC2)cnn1-c1ccccc1)c1ccco1	4.2	0.67	2.9	7	.	3	-4.9
COc1ccc(-n2c(COc3ccc(C)cc3)n[nH]c2=S)cc1	1.8	0.67	4.4	0	i	26	-5.4
Cc1onc(-c2ccccc2Cl)c1C(=O)Nc1sc2c(c1C#N)CCC2	-0.3	0.73	2.5	-8	.	16	-1.5
O=[N+]([O-])c1ccc(S(=O)(=O)N(CCCN2CCOCC2)Cc2cccs2)cc1	0.5	0.7	2.9	0	i	-6	5.9
CC(=O)c1ccc(NC(=O)c2cc(Cl)sc2Cl)cc1	2.5	0.66	1.3	12	i	-18	0.3
CC1(C)Cc2cccc(OCC(=O)Nc3cccnc3Cl)c2O1	-2.8	0.68	-1.6	-1	.	-13	-3.5
CCc1ccccc1NC(=O)CN(C)C(=O)CSc1nn(-c2ccccc2)c(=S)s1	-1.0	0.69	4.9	3	.	.	1.0
O=c1[nH]c(NNC(=S)NCc2ccccc2)nc2c1C1(CCCCC1)Cc1ccccc1-2	-1.6	0.7	-49	5	i	-1	-2.6
O=C(O)CCc1ccc(-c2ccccc2)n1-c1ccc(C(=O)O)cc1	2.5	0.7	1.4	8	.	1	-5.7
Cc1cc(NCCCN2CCOCC2)n2nc(C)c(-c3ccccc3)c2n1	-4.5	0.69	-3.9	0	.	.	1.0
Cc1ccc(CSc2nnc(NC(=O)Cn3cnc4ccccc4c3=O)s2)cc1	1.2	0.71	-2.9	3	i	-14	1.5
CC(=O)N/C(=C\c1ccccc1)C(=O)Nc1ccc(O)cc1	1.3	0.71	0.3	3	i	99*	-2.6
O=C(NCCC1CCCCN1S(=O)(=O)c1cccs1)C(=O)Nc1ccc(F)cc1F (centres undefined)	1.4	0.66	1.0	-10	i	-3	-3.7
CCOc1ccc2nc(Cl)c(C3CC(c4ccccc4)=NN3C(=O)c3cccs3)cc2c1 (centres undefined)	1.2	0.7	-8.0	-7	i	21	7.7
O=C(c1cccnc1)N1CCN(Cc2ccc3c(c2)OCO3)CC1	1.0	0.7	4.9	3	.	-2	-1.2
CCCCN(CC)Cc1ccc(CNC(=O)Nc2ccc(OC)cc2OC)o1	1.7	0.69	-2.8	3	.	-1	6.0
CCc1cc(=O)oc2cc(O[C@@H]3O[C@H](CO)[C@@H](O)[C@H](O)[C@H]3O)c(Cl)cc12	-2.2	0.67	-14	5	i	.	-2.2
Cc1cccc(C(=O)OCCN2CCOCC2)c1	-0.5	0.63	-0.7	-3	i	0	-1.9
CCn1cc(CN2CCC(n3nccc3NC(=O)c3ccc4c(c3)OCO4)CC2)c(C)n1	0.6	0.68	3.6	4	i	-7	0.8
CC(=O)Nc1ccc(NC(=O)C(C)OC(=O)/C=C/c2cnc3ccccc3n2)cc1 (centres undefined)	3.2	0.71	2.1	1	i	-1	2.1
COc1cc(/C=N/NC(=O)c2cc(-c3cccc(OC(C)C)c3)nc3ccccc23)ccc1O	-1.5	.	.	-3	i	-7	5.5
O=C(NCC(=O)N1CCN(C/C=C/c2ccccc2)CC1)c1ccc(OC(F)F)cc1	3.6	0.6	-0.7	-10	i	-3	4.8
CCOCCCn1c(=S)[nH]c2cc(C(=O)NCC(OC)OC)ccc2c1=O	-0.6	0.71	1.0	4	i	51	-3.9
O=C(NNC(=S)Nc1cccc(C(F)(F)F)c1)c1cccc(Cl)c1	-1.4	0.65	-1.1	12	i	26	4.3
Cc1ccccc1Nc1nc(N)nc(CN2CCN(Cc3ccc4c(c3)OCO4)CC2)n1	0.1	0.68	-0.4	-7	i	-4	-2.0
Cc1ccc(NC(=O)CN2CCN(CCN=CC3=C(O)CC(c4ccc(C)cc4)CC3=O)CC2)cc1 (centres undefined)	-1.9	0.69	-0.9	1	i	7	3.4
Cc1ccc(S(=O)(=O)NNC(=O)c2ccncc2)cc1[N+](=O)[O-]	1.6	0.72	0.0	1	i	10	3.6
Cc1ccc(C(=O)NC(=S)N2CCN(C)CC2)cc1	22	0.62	6.0	0	.	4	-1.0
C/C(=N\NC(=O)c1ccncc1)c1cccc(NC(=O)c2ccc(Cl)s2)c1	-1.4	.	.	-4	i	-9	5.8
CCC1(c2ccccc2)NC(=O)N(CC(=O)NCCN2C(=O)S/C(=C\c3cccnc3)C2=O)C1=O (centres undefined)	-0.2	0.7	5.2	-6	i	31	8.0
COc1ccc(C(=O)NNC(=O)C(NC(=O)c2ccccc2NC(=O)c2ccco2)C(C)C)cc1 (centres undefined)	-1.1	0.7	1.8	8	.	0	-2.3
CCN(CC)c1ccc(C=Nc2ccc(C)cc2)c(O)c1	-1.6	0.72	1.6	6	.	1	0.3
Cc1ccc(/C=C(/C#N)C(=O)NC(C)c2ccccc2)o1 (centres undefined)	3.3	0.66	6.7	0	i	2	7.5
CCOC(=O)c1cnc(-n2nc(C)cc2C)nc1N(C)C	4.3	0.68	3.9	-6	.	-2	1.7
Nc1cc(Cl)nc(N/N=C/c2c(O)ccc3ccccc23)n1	1.7	.	.	10	i	-6	-5.1

Entries from the list above that have a furan ring, fused or not, in the order listed:
SMILES	HNF4A DNA FP	E coli growth	UCH37 inh	Beta2AR agonist	FGF22 binding	ALR inh	LANA-H2A inh
Cc1ccc2c(CC(=O)OCc3cc(=O)n4c(n3)sc3ccccc34)coc2c1	-13	0.82	-2.7	-12	.	-8	1.5
O=C(Nc1c(C(=O)N2CCOCC2)cnn1-c1ccccc1)c1ccco1	4.2	0.67	2.9	7	.	3	-4.9
CCCCN(CC)Cc1ccc(CNC(=O)Nc2ccc(OC)cc2OC)o1	1.7	0.69	-2.8	3	.	-1	6.0
COc1ccc(C(=O)NNC(=O)C(NC(=O)c2ccccc2NC(=O)c2ccco2)C(C)C)cc1 (centres undefined)	-1.1	0.7	1.8	8	.	0	-2.3
Cc1ccc(/C=C(/C#N)C(=O)NC(C)c2ccccc2)o1 (centres undefined)	3.3	0.66	6.7	0	i	2	7.5

New compounds follow.
SMILES	HNF4A DNA FP	E coli growth	UCH37 inh	Beta2AR agonist	FGF22 binding	ALR inh	LANA-H2A inh
CCn1nnnc1SCC(=O)c1cc(Cl)ccc1OC	-1.3	.	.	-17	i	55	-2.0
CN1CCN(C(=O)c2cnn3c(C(F)(F)F)cc(-c4ccc5c(c4)OCO5)nc23)CC1	3.0	0.72	2.4	-7	.	-4	3.5
CCC(C)[C@H](NS(=O)(=O)c1ccc(C)cc1)C(=O)N1CCC(C(=O)N2CCC(C(=O)OC)CC2)CC1 (some centres undefined)	8.1	0.73	1.5	8	i	-6	-2.0
C/C(=N/Nc1nc(-c2ccccc2)c(CC(=O)O)s1)c1ccccc1	49*	.	.	5	i	.	.
Cc1nc2ccccc2cc1C(=O)NCc1ccc(F)cc1	1.2	0.67	1.7	6	.	-22	-4.4
COc1ccc(C(=O)N[C@H](C(=O)NCCCSc2ccccc2)C(C)C)cc1	-2.7	0.69	0.9	-7	i	3	0.1
CCCCC1=CC2=C(c3ccco3)C(=O)C(C)(OC(=O)c3ccc(OC)cc3)C(=O)C2=CN1CCCN(CC)CC (centres undefined)	-3.0	0.69	3.3	1	i	.	1.3
O=C(CCCCC(=O)Nc1ccc(F)cc1)Nc1ccc(F)cc1	-2.8	0.66	5.0	-2	i	8	1.5
CC(=O)Nc1ccc(S(=O)(=O)NC(CC(=O)O)c2ccc(C)cc2)cc1 (centres undefined)	-0.7	0.68	2.5	-3	i	-5	0.6
Cc1ccc(C(=O)N[C@H](C(=O)OCC(=O)NC2CCS(=O)(=O)C2)C(C)C)cc1 (some centres undefined)	-0.4	0.71	5.5	2	.	-4	-0.1
Cc1nc2ccccc2n1-c1nc(-c2ccco2)cc(C(F)(F)F)n1	5.3	0.72	-10	18	.	-1	-1.0
Cc1nn(C)c(C)c1S(=O)(=O)N1CCCC(C(=O)NC2CCCCC2)C1 (centres undefined)	6.6	0.73	1.4	9	.	-2	1.0
COc1ccc(/C(O)=C2/C(=O)C(=O)N(c3ccccn3)C2c2cccc(Cl)c2)cc1 (centres undefined)	0.8	0.6	11	-3	i	3	5.0

Compound activity as filed in PubChem BioAssay.
